Screening data: PubChem, National Center for Advancing Translational Sciences (NCATS)
Cruzain inh noDet: cruzain (T. cruzi) inhibition without detergent | P25779 | purified cruzain, Z-FR-AMC fluorescence, no detergent | Potency, µM, for the others: max response, negative = inhibition, usual class: inhibitors | 200,000 compounds, 2.3% hits | AID 1476; active = well fitted curve in the direction sought with a large enough effect; inconclusive = small, poorly fitted or top-dose-only effect, or another doubt; inactive = no such curve, though single readings can be large; an effect the other way counts as inactive or inconclusive;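 also: plate controls were enzyme without inhibitor for no effect and buffer without enzyme for full effect; nearly all actives have a fitted effect of over 40% in size; top concentration of the series not given in the record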
Target sequence (P25779 123-467 limits assumed): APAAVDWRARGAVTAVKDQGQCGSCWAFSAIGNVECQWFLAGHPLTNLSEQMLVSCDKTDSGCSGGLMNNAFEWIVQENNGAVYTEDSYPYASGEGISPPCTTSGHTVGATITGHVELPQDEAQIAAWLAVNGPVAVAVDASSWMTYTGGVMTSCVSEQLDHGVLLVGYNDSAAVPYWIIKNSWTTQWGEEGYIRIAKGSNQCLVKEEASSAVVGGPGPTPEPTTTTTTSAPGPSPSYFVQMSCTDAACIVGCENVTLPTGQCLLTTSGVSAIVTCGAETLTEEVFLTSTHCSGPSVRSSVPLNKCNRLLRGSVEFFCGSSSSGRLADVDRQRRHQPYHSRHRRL
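Purified cruzain at 1.5 nM, pre-incubated 15 min with compound at room temperature in 100 mM sodium acetate pH 5.5, 5 mM DTT, 0.00005% Triton X-100. Reaction started with 2 uM Z-FR-AMC; AMC fluorescence increase over 60 s gives rate.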
RE007 growth inh: less growth of the S. pombe RE007 Vpr strain. AID 651644. Potency, µM (series often up to 92.2 µM), inactives show at the highest dose activity change, negative = less growth. S. pombe RE007 Vpr strain, BacTiter-Glo ATP luminescence, 24 h; control for the full effect not named in the record. 360,000 compounds, 0.21% hits; active = well fitted falling curve with a large enough effect; inconclusive = small, poorly fitted or top-dose-only effect; inactive = no such curve, though single readings can be large or run the other way;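 also: % is scaled to controls: 0 for no effect and ±100 for the full control effect; nearly all actives have a fitted effect of over 50% in size; the assay follows cell death caused by Vpr and the record does not say whether a fall means rescue or toxicity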
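Fission yeast RE007 carrying one integrated HIV-1 vpr copy, seeded at OD 0.01 in PMG+AL medium with 23 nL pinned compound. Grown 24 h at 30 degrees; viability read by BacTiter-Glo luminescence after 5 min.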
Cruzain Triton: blocks cruzain activity in presence of Triton detergent; 200,000 compounds, 0.43% hits; AID 1478; Potency, µM, for inactives: max response, negative = inhibition, hits mostly inhibitors; purified cruzain, Z-FR-AMC fluorescence, 0.01% Triton; active = well fitted curve in the direction sought with a large enough effect; inconclusive = small, poorly fitted or top-dose-only effect, or another doubt; inactive = no such curve, though single readings can be large; an effect the other way counts as inactive or inconclusive;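 also: plate controls were neutral wells for no effect and buffer without enzyme for full effect; nearly all actives have a fitted effect of over 40% in size; top concentration of the series not given in the record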
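Purified cruzain (1.5 nM final) was preincubated with compounds for 15 min at room temperature in 100 mM sodium acetate pH 5.5, 5 mM DTT, 0.01% Triton X-100. Reaction started with 2 uM Z-FR-AMC; AMC fluorescence change over 60 s gave activity.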
MARV entry inh: Marburg virus entry inhibition. Potency, µM (titrated, usually from 37.8 µM), inactives show at the top dose activity change, negative = inhibition, most hits filed as inhibitors. Marburg virus pseudotyped entry inhibition, cell reporter; control for the full effect not named in the record; about a third of the inactives were read at about 46 µM. 300,000 compounds, 1.8% hits; active = well fitted inhibition curve with a large enough effect; inconclusive = small, poorly fitted or top-dose-only effect, or effect the other way; inactive = flat fitted curve, though single readings scatter; tested in HEK293 cells; about a fifth of its hits are not listed in these tables; also: % is scaled to controls: 0 for no effect and ±100 for the full control effect; luciferase read-out
2A StopGo: FMDV 2A StopGo reporter, luciferase signal; human cells with a luciferase reporter of 2A StopGo recoding; control for the full effect not named in the record; Potency, µM (doses to about 57.9 µM), for inactives: at the highest dose signal change, negative = less light; 410,000 compounds, 1.2% hits; AID 1159524; active = well fitted falling curve with a large enough effect; inconclusive = small, poorly fitted or top-dose-only effect; inactive = no such curve, though single readings can be large or run the other way; tested in HEK293T cells; also: % is scaled to controls: 0 for no effect and ±100 for the full control effect; nearly all actives have a fitted effect of over 45% in size; luciferase light after 4 h
NS1 inh: influenza NS1 inhibition; S. cerevisiae slowed by influenza A NS1, growth recovery by OD600; Potency, µM (doses to about 46.1 µM), for the others: at the top dose activity, positive = more growth; 270,000 compounds, 0.4% hits; AID 2326; also: actives are rising curves; nearly all actives have a fitted effect of over 50% in size
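Compounds were scored for reversing the slow growth caused by influenza A NS1 in S. cerevisiae, measured by optical density at 600 nm. Assay medium contained 2% galactose at pH 6.0; NS1-free yeast of the same strain were the positive control.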
SARS PLpro yeast: inhibitors of SARS-CoV papain-like protease in yeast; S. cerevisiae expressing SARS-CoV PLpro, growth rescue; control for the full effect not named in the record; Potency, µM (highest dose often 32.9 µM), inactives show top-dose activity, positive = growth rescue; 330,000 compounds, 0.19% hits; also: 0% is about no effect; nearly all actives have a fitted effect of over 55% in size; growth read by luminescence after 48 h
LASV entry inh: blocks Lassa virus binding to or entry into cells | 300,000 compounds, 1.2% hits | Potency, µM (highest dose often 37.9 µM), for the others: at the highest dose activity change, negative = inhibition, hits mostly inhibitors | Lassa virus pseudotype entry inhibition, cell reporter; control for the full effect not named in the record; active means well fitted inhibition curve with a large enough effect; inconclusive means small, poorly fitted or top-dose-only effect, or effect the other way; inactive means flat fitted curve, though single readings scatter; tested in HEK293 cells; also: % is scaled to controls: 0 for no effect and ±100 for the full control effect; nearly all actives have a fitted effect of over 50% in size; luciferase read-out
The depositor's hits bear a star; ? = inconclusive; . = not tested or not shown; & = joins results of further samples; [ ] = remark or other dose. Unless noted, calls follow the shape of the dose curve; as a rule, active means well fitted rising curve with a large enough effect; inconclusive means small, poorly fitted or top-dose-only effect; inactive means no such curve, though single readings can be large or run the other way. Potency is read from the fitted curve at half-maximal effect.

molecule	Cruzain inh noDet	RE007 growth inh	Cruzain Triton	MARV entry inh	2A StopGo	NS1 inh	SARS PLpro yeast	LASV entry inh
CCC(C(=O)O)P(=O)(c1ccc(Cl)cc1)c1ccc(Cl)cc1 (stereo not given)	.	15%	.	25%[46.1 µM]	-6%	3%	1%	12%[46.1 µM]
CC1=C(C(=O)OC2CCCCC2)C(c2cccnc2)n2ncnc2N1 (stereo not given)	-5%	3%	-1.1%	-16%	?	-9%	-3%	?
CC12COC3(C(=O)N4CCN(c5ccccn5)CC4)CC1CCC32C (stereo not given)	.	1%	.	.	-17%	-9%	0%	.
CCC(C)[C@H]1COCCS(=O)(=O)N1Cc1ccccc1F (stereo not given in full)	.	-4%	.	.	-14%	1%	2%	.
COc1ccc(C)cc1NC(=O)CN(c1ccc(C)cc1)S(C)(=O)=O	.	21%	.	?	-7%	-6%	-1%	?
COc1ccccc1CCCNC(=O)C1CCC(=O)N(CCc2ccc(Cl)cc2)C1 (stereo not given)	.	0%	.	-20%	-11%	-30%	0%	?
Cc1ncc(CO)c(/C=N/NC(=O)c2ccc(O)cc2)c1O	-10%	13%	1.8%	27%	-29%	?	16%	14%
CN(C)S(=O)(=O)c1ccc(C(=O)Oc2ccccc2)cc1	5%	-3%	-0.8%	-30%	-25%	?	-12%	5%
COc1cccc(N2C(=O)C(Cc3c[nH]c4ccccc34)NC2=S)c1 (stereo not given)	-4%	-5%	-2.8%	5%	-5%	21%	-5%	0%
CN1CCN(CCc2nc3cc(NC(=O)COc4ccc(Cl)cc4)ccc3n2C)CC1	.	-8%	.	?	-9%	-6%	-3%	?
NC(=O)N/N=C\c1cc(Br)ccc1O	9%	-5%	-2.0%	2%	0%	4%	10%	18%
O=C(Nc1cccc(Cl)c1)Nc1cnccn1	.	-10%	.	.	21%	-2%	0%	.
C=C(C)Cn1c(C2CC(=O)N(Cc3ccccc3)C2)nc2ccccc21 (stereo not given)	12%	-4%	1.1%	.	-4%	-45%	-2%	.
CN(C)c1ccc(CNC(=O)CN(C)S(=O)(=O)c2ccc3c(c2)c(=O)n(C)c(=O)n3C)cc1	-9%	-5%	3.3%	?	-11%&-25%	2%	1%	-11%[46.1 µM]
O=C1CCN(S(=O)(=O)c2ccccc2)CCN1CCOCc1cccc(F)c1	.	3%	.	.	-10%	4%	4%	.
CCc1c(C)sc(NC(=O)c2ccco2)c1C(=O)N1CCCCC1	-7%	-3%	-4.8%	-6%	-22%	-12%	-2%	18%
COc1ccc(NC(=O)Cn2nc(C(=O)O)c3ccccc3c2=O)cc1OC	.	0%	.	?	19%	12%	0%	4%[46.1 µM]
Nc1nc(SCc2ccc(F)cc2)ns1	.	9%	.	-5%[46.1 µM]	35%[activator]	.	-5%	?
Cc1cccc(C(=O)NC(=S)N2CCN(c3ccc([N+](=O)[O-])cc3)CC2)c1	-25%	-2%	-10%	-10%	-22%	7%	1%	9%
CC(C)(C)C(=O)Nc1ccc2nc(SCC(=O)N3CCCC3)sc2c1	10%	.	-5.0%	?	-2%	.	.	-12%[46.1 µM]
Cc1ccc(-c2nnn(CC(=O)NCC3COCCO3)n2)o1 (stereo not given)	-5%	17%	0.3%	-1%[46.1 µM]	4%	3%	-3%	2%
COc1ccc(N2CCN(C(=O)C(NC(=O)c3c(F)cccc3F)C(C)C)CC2)cc1 (stereo not given)	.	-14%	.	7%[46.1 µM]	3%	-2%	4%	-20%[46.1 µM]
Cc1cc(C)c2ccc(C)[n+]([O-])c2c1O	-14%	-14%	-0.8%	23%	12%	-55%	-6%	4%
CCCCCCN1C(=O)C(O)=C(C(C)=O)C1c1ccc(Cl)cc1 (stereo not given)	?	-3%	-8.0%	18%	-25%	1%	-2%	-1%
CCCn1c(NCc2ccc(C)o2)nc2ccccc21	2%	-11%	0.9%	-22%	10%	-48%	-12%	0%
O=C(c1ccccc1)c1ccc(CN2C(=O)c3ccccc3C2=O)o1	-3%	-10%	-4.5%	12%	.	-32%	-5%	2%
CCCn1cc(S(=O)(=O)CC(=O)N2CCc3ccccc32)c2ccccc21	-17%	?	-7.3%	-18%	0%	?	-1%	-17%
O=c1ccnc(SCn2nnc3ccccc3c2=O)[nH]1	2%	10%	9.5%	-16%	2%	5%	13%	-3%
COc1ccc(CC(=O)Oc2ccccc2Cl)cc1S(=O)(=O)N1CCOCC1	.	-3%	.	11%[46.1 µM]	-13%	.	-12%	16%
CCOC(=O)c1cc(S(=O)(=O)Nc2cc(C)c(Cl)cc2OC)[nH]n1	0%	.	-6.2%	.	10%	.	.	14%[46.1 µM]

Further records follow:
molecule	Cruzain inh noDet	RE007 growth inh	Cruzain Triton	MARV entry inh	2A StopGo	NS1 inh	SARS PLpro yeast	LASV entry inh
C/C(=N\OC(=O)Nc1ccc(Cl)cc1)c1ccc(F)c(F)c1	.	5%	.	22%[46.1 µM]	8%	-76%	-7%	-29%[46.1 µM]
O=c1[nH]c(SCc2ccc(F)cc2)nc2c1cnn2-c1ccc(F)cc1	16µM*	11%	1.6%	-13%	-30%	5%	0%	0%
CCOC(=O)C1CCN(Cc2nc3ccccc3c(=O)n2-c2ccc(F)cc2)CC1	-22%	32%	-0.6%	-1%	-19%	-7%	7%	0%
CCCNC(=O)Cn1nc(-c2ccc(C)c(C)c2)c2cnc3ccc(F)cc3c21	4%	.	-1.8%	.	44%[activator]	.	.	9%[46.1 µM]
O=C(NCc1ccco1)C1CCCN1C(=O)Nc1ccccc1Cl (stereo not given)	.	-2%	.	4%[46.1 µM]	-8%	1%	0%	11%[46.1 µM]
CCC1(CCc2ccncc2)C(=O)NC(=O)NC1=O	-4%	-5%	-1.9%	6%[46.1 µM]	-18%	6%	4%	-2%
Cc1nc(NC(=O)c2ccccc2)sc1-c1csc(NCc2ccco2)n1	16µM*	-18%	4.7%	?	.	?	-4%	-9%
Nc1ccc(Cc2ccc(N)c(O)c2)cc1O	.	-25%	.	13%[14.2 µM]	68%[activator]	.	-4%	1%
COc1ccc([N+](=O)[O-])cc1N(CC(=O)NC1CCCC1)S(C)(=O)=O	.	-9%	.	15%[46.1 µM]	-4%	3%	0%	-6%
CCc1ccc(NC(=O)C(C)OC(=O)/C=C/c2ccc(O)c(OC)c2)cc1 (stereo not given)	.	-3%	.	?	1%	.	5%	-26%
O=C(CN1CCCC1)Nc1ccc(OC(F)(F)F)cc1	.	-8%	.	9%	27%	7%	5%	-7%
O=C(Nc1nnc(S(=O)(=O)N2CCCC2)s1)c1ccccc1Br	-9%	1%	-3.4%	.	4%&8%	1%	0%	18%[46.1 µM]
CN(C)NC(=S)NC(=O)C12CC3CC(CC(C3)C1)C2	.	-2%	.	?	-13%	.	4%	-1%
O=C(O)c1ccc(Cl)c(S(=O)(=O)Nc2ccccc2Cc2ccccc2)c1	.	6%	.	-20%[46.1 µM]	-15%	22%	7%	-10%[46.1 µM]
CCOc1ccc(C2c3[nH]c4ccccc4c3CCN2Cc2cccn2-c2ncccn2)cc1 (stereo not given)	.	-2%	.	3.2µM*	5%	5%	0%	?
COc1ccc(CCNC(=O)c2cc3c(cc2Cl)N2CCCCCC2=NS3(=O)=O)cc1	.	-17%	.	1%	0%	.	1%	-3%[46.1 µM]
Cc1ccc(-n2c(-c3cccc(C)c3)nc3c(cnn3-c3ccccc3)c2=O)cc1	4%	.	-6.5%	.	-23%	.	.	5%[46.1 µM]
CC1CCCCN1CCCNC(=O)c1ccc2nc(N3CCCCC3)sc2c1 (stereo not given)	.	-3%	.	.	29%	-18%	2%	.
CCn1cc(CN2CCN(C)C(CCO)C2)c2ccccc21 (stereo not given)	.	9%	.	-1%[46.1 µM]	-7%	21%	-1%	15%[46.1 µM]
COc1ccc2[nH]c(=O)c(CN(Cc3cccs3)C(=S)Nc3cccc(C)c3)cc2c1	?	2%	-3.0%	4.5µM*	-30%	12%	-2%	?
CCOC(=O)C1=C(C)NC(=O)NC1c1cc(C)sc1C (stereo not given)	-16%	5%	-3.8%	0%	-23%	-6%	-2%	0%
CC(C)N(C(=S)Nc1cccc(C(F)(F)F)c1)C(C)c1ccccn1 (stereo not given)	.	-2%	.	?	?	.	3%	?

Complete entries as entered above. Order of screens: Cruzain inh noDet, RE007 growth inh, Cruzain Triton, MARV entry inh, 2A StopGo, NS1 inh, SARS PLpro yeast, LASV entry inh
Profile of CCCn1c(NCc2ccc(C)o2)nc2ccccc21 : 2%, -11%, 0.9%, -22%, 10%, -48%, -12%, 0%
Profile of CC12COC3(C(=O)N4CCN(c5ccccn5)CC4)CC1CCC32C (stereo not given) : ., 1%, ., ., -17%, -9%, 0%, .
Profile of COc1ccc(N2CCN(C(=O)C(NC(=O)c3c(F)cccc3F)C(C)C)CC2)cc1 (stereo not given) : ., -14%, ., 7%[46.1 µM], 3%, -2%, 4%, -20%[46.1 µM]
Profile of CN(C)S(=O)(=O)c1ccc(C(=O)Oc2ccccc2)cc1 : 5%, -3%, -0.8%, -30%, -25%, ?, -12%, 5%
